# ugtP null kill: compounds lethal to S. aureus RN4220 ugtP deletion mutant; growth inhibition, % (test concentration not listed); hit rate 0.54% among 330,000; OD600 growth, 16 h; some inactives read as strong as hits;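 active = z-score under -3 and OD600 up to 0.15 on both plates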;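 also: plate controls were untreated wells for no effect and antibiotic for full effect; wells of about 80 µL received 100 nL stock; the first replicate is given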
# Bead autofluor: counter-screen for toxin protease inhibitors: compound fluorescence. compound autofluorescence counterscreen, microsphere flow cytometry; hits give high values. fluorescence intensity (no concentration beside the values). hit rate 3.1% among 360,000;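 active = at least 3 SD above the mean of all compounds, about 16000 in these data; inconclusive = too few beads counted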;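 also: 100 nL of 1 mM stock went into each well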
# Mtb hypoxia rep: Mtb hypoxia fluorescent reporter inhibition. hit rate 0.1% among 300,000. fluorescence inhibition, % (test concentration not listed). AID 1159583. M. tuberculosis hypoxia-regulated fluorescent reporter, fluorescence;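 active = 35 to 45% if threefold the growth effect, above 45% if 1.5-fold the growth effect; inactive = the rest, general growth blockers included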;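 also: wells of about 50 µL received 100 nL stock; 0% = vehicle wells and 100% = reference inhibitor wells; whole bacteria with a GFP reporter of the hypoxia response; strong numbers were not always called active; many hits fall short of the cut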
# PrP UTR inh: inhibition of PrP 5' UTR reporter expression; inhibition, % (test concentration not listed); AID 488862; cell-based PrP 5' UTR mRNA reporter, plate reader; hit rate 0.35% among 340,000;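 active = every replicate at 50% or more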;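 also: 0 = median of the neutral control wells; tested in H4 reporter cells; numbers are from one replicate; inactives centre near -14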
# Sa RN4220 lethal: S. aureus RN4220 growth inhibition; OD600, 16 h; inhibition, % (test concentration not listed); hit rate 0.33% among 330,000;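 active = z-score of -3 or lower and OD600 up to 0.18 on both plates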;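 also: plate controls were untreated cells for no effect and reference antibiotic for full effect; stock transfer was 100 nL into about 80 µL; one replicate is shown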
# BJeLR lethal: BJeLR cell viability loss; BJeLR (HRASV12) viability, CellTiter-Glo ATP luminescence, 48 h; reference of the scale not given here; inhibition, % (no concentration beside the values); hit rate 0.17% among 300,000; AID 1554;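 active = replicate mean above 50%; inconclusive = above 50% but judged a plate artefact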;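 also: 50 nL library stock added to about 25 µL; numbers are from one replicate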
# Mtb hypoxia rep growth: recorded beside Mtb hypoxia rep, whose call it bears; growth inhibition, %; measured here: M. tuberculosis growth (absorbance);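 0% = vehicle and 100% = reference antibiotic; read after six days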
# * marks the source's active call; other numbers are inactive results; ? = inconclusive; / = no result given; & = joins results of further samples.
# The opening five compounds, to show the layout:
SMILES,ugtP null kill,Bead autofluor,Mtb hypoxia rep,Mtb hypoxia rep growth,PrP UTR inh,Sa RN4220 lethal,BJeLR lethal
CC(=O)Nc1cc2nc(C)n(Cc3ccccc3[N+](=O)[O-])c2nc1C,9,3656,8,-2,-18,0.5,6
COC(=O)c1ccc(COc2ccc(F)cc2)o1,20,3860,7,6,-44,10,-2
O=C(COC(=O)/C=C/c1cccc(Br)c1)Nc1cccc(S(=O)(=O)NC2=NCCC2)c1,3,/,11,0,/,8.2,/
CC(C)CNC(=O)COc1ncnc2sccc12,5,4193,13,13,-50,2.1,9
CC(=O)Nc1ccc(S(=O)(=O)Nc2ccc(C(=O)NCC(=O)O)cc2)cc1,6,5385,-20,-11,-22,1.6,-10

# The listing, from the first entry:
SMILES,ugtP null kill,Bead autofluor,Mtb hypoxia rep,Mtb hypoxia rep growth,PrP UTR inh,Sa RN4220 lethal,BJeLR lethal
CC(=O)Nc1cc2nc(C)n(Cc3ccccc3[N+](=O)[O-])c2nc1C,9,3656,8,-2,-18,0.5,6
COC(=O)c1ccc(COc2ccc(F)cc2)o1,20,3860,7,6,-44,10,-2
O=C(COC(=O)/C=C/c1cccc(Br)c1)Nc1cccc(S(=O)(=O)NC2=NCCC2)c1,3,/,11,0,/,8.2,/
CC(C)CNC(=O)COc1ncnc2sccc12,5,4193,13,13,-50,2.1,9
CC(=O)Nc1ccc(S(=O)(=O)Nc2ccc(C(=O)NCC(=O)O)cc2)cc1,6,5385,-20,-11,-22,1.6,-10
Cn1c(=NNC(=O)C2CCCCC2)sc2ccccc21,4,/,3,2,/,1.8,/
O=C(COC(=O)c1cc(=O)[nH]c2ccccc12)NC(=O)c1ccccc1,-3,6437,-7,8,3,0.2,2
CCOc1ccccc1NC(=O)CCCc1nc2ccccc2c(=O)[nH]1,3,8072,1,8,5,3.8,-8
CCN1CCN(C(=O)Cn2ncc3c([nH]c4ccccc43)c2=O)CC1,7,4432,1,-3,-10,2.9,-12
CCOC(=O)C1CCN(C(=O)CN(c2ccc(OC)cc2)S(=O)(=O)c2c(C)nn(C)c2C)CC1,/,4223,/,/,5,/,-13
COc1ccc(Cc2nnc(NC(=O)c3cccs3)s2)cc1OC,7,3924,10,1,-88,6.0,/
COc1ccccc1NS(=O)(=O)c1cc(C(=O)NCc2ccco2)ccc1C,-7,17992*,4,7,-1,-1.9,0
O=C(NCCCN1CCOCC1)c1cc(-c2ccc3c(c2)OCO3)nc2ccccc12,11,5600,-2,4,1,0.5,1
COc1ccc(OC)c(CCNC(=O)c2cccc(NC(=O)C3=C(C)OCCS3)c2)c1,4,5764,5,2,-9,3.1,-23
CCC(=O)Nc1nnc(Cc2ccccc2)s1,-7,9909,11,9,-19,7.8,-4
CC1CCC2(CC1)NC(=O)N(CC(=O)N1CCOCC1)C2=O (stereo not given),1,3622,5,7,-13,5.0,/
O=C(COC(=O)c1ccccc1F)NC1CC1,1,?,7,3,-3,1.8,/
Cc1cccc(CC(=O)NC2CCS(=O)(=O)C2)c1 (stereo not given),5,5846,6,5,-19,5.1,11
CS(=O)(=O)c1[nH]nc(-c2ccccc2)c1C#N,9,5268,-3,-3,-58,2.1,0
CC1CCc2c(sc(NC(=O)C3=COCCO3)c2C(N)=O)C1 (stereo not given),-5,/,12,3,/,1.9,/
COc1ccc(C=NNC(=O)CNC(=O)COc2ccccc2)cc1,1,/,6,7,/,0.8,/
c1ccc(COc2ccc(CN3CCN(c4ccccn4)CC3)cc2)cc1,-10,3337,18,15,-91,-5.6,-2
Cc1ccc(C(=O)C(C)OC(=O)c2nc(Cl)ccc2Cl)cc1 (stereo not given),12,4113,3,-1,-11,2.8,-8
Cc1ccc(C)c(CSc2nnc(CCN)o2)c1,-8,9821,4,5,-27,3.0,-2
COc1ccc(/C=C(/NC(=O)c2ccccc2Cl)C(=O)O)cc1,6,2745,15,0,-19,4.5,5
CCc1ccc(N(C(=O)CNC(=O)c2ccco2)C(C(=O)NC2CCCC2)c2ccncc2)cc1 (stereo not given),8,6200,5,7,-8,3.5,-2
O=S(=O)(c1ccc(N2CCOCC2)nc1)N1CCOCC1,2,9909,12,6,/,2.5,-5
CCCn1c(SCC(=O)NC2CCC(C)CC2)n[nH]c1=O (stereo not given),3,3321,14,8,-6,3.2,/
CC1Cc2ccccc2N1S(=O)(=O)c1cccc(C(=O)NCC(c2ccco2)N2CCCC2)c1 (stereo not given),4,/,2,14,0,5.7,/
Cc1ccc(Cl)cc1N1CCN(S(=O)(=O)c2ccc3[nH]c(=O)ccc3c2)CC1,2,6963,-3,-2,-9,6.4,-5
CCN(c1ccccc1)S(=O)(=O)c1ccc(OC)c(NC(=O)c2c(C)noc2C)c1,4,5894,0,4,-18,7.6,/
O=C(Nc1ccccc1)C1=C[C@@H](c2coc3ccccc3c2=O)C[C@@H](OCCCCO)O1,/,3985,/,/,-8,/,-14
O=C(CC(SCCO)c1ccc2c(c1)OCO2)c1ccco1 (stereo not given),-14,2538,21,27,-61,-3.9,-7
CCOc1ccc(S(=O)(=O)NCCC(=O)NCC2COc3ccccc3O2)cc1 (stereo not given),3,3861,9,15,-13,4.6,/
Cc1cc2ccccc2nc1SCC(=O)Nc1nc(-c2ccccc2)cs1,0,16277*,-3,-6,-4,-3.8,-9
CCn1c(COc2ccccc2C)nnc1SCC(=O)Nc1ccc2c(c1)OCCO2,-4,20676*,2,4,-10,-1.6,-4
COc1ccc(CC(=O)OCC(=O)NC(=O)NC(C)C)cc1,-4,23854*,-4,5,-42,1.2,-6
CCn1c(C)nnc1SCC(=O)Nc1ccccc1Cl,10,3376,0,-6,-20,3.2,-9
O=C1NCC(COc2cccc3ccccc23)O1 (stereo not given),-5,4835,15,4,-13,2.7,-2
O=C(CSc1nnc2c(n1)[nH]c1ccc(F)cc12)Nc1ccccc1F,4,3075,7,5,-23,7.2,-2
COc1ccc(OC)c(S(=O)(=O)NCC(c2ccc3c(c2)OCO3)N2CCOCC2)c1 (stereo not given),4,?,-1,-2,-10,5.2,-2
COc1ccc(-c2ccc3c(c2)S(=O)(=O)c2cccc(C(=O)NCc4cccc(OC(F)(F)F)c4)c2C3=O)cc1OC,17,3786,6,-1,-8,25,/
O=C(CNS(=O)(=O)c1ccc(Cl)c(C(F)(F)F)c1)NC1CCCCC1,-2,3085,10,1,-2,7.1,/
CN(C)S(=O)(=O)Oc1ccccc1C(=O)Nc1ccc(F)cc1,8,2000,-10,8,-13,1.8,6
CCCc1cc(=O)[nH]c(SCC(=O)N(C)Cc2ccccc2)n1,6,2788,/,/,-28,3.8,4
Cc1ccc(OC(C)C(=O)Nc2ccc(Cl)cn2)c([N+](=O)[O-])n1 (stereo not given),3,3736,9,8,-5,5.4,/
CC1=C(C(=O)OC(C)(C)C)C(c2cccs2)NC(=O)N1 (stereo not given),-1,2027,12,10,-18,9.5,-1
CC1CCCCN1C(=O)c1cc(F)c(F)cc1Cl (stereo not given),3,4734,/,/,-17,2.3,1
O=[N+]([O-])c1ccccc1/C=C/C=N/n1c(-c2ccccc2)n[nH]c1=S,/,2410,/,/,-11,/,2
Cc1nc2[nH]c(=S)[nH]c2c(=O)[nH]1,4,3569,19,10,-6,1.8,/

# Structural class, the compounds so far containing a nitro group on carbon.
SMILES,ugtP null kill,Bead autofluor,Mtb hypoxia rep,Mtb hypoxia rep growth,PrP UTR inh,Sa RN4220 lethal,BJeLR lethal
CC(=O)Nc1cc2nc(C)n(Cc3ccccc3[N+](=O)[O-])c2nc1C,9,3656,8,-2,-18,0.5,6
Cc1ccc(OC(C)C(=O)Nc2ccc(Cl)cn2)c([N+](=O)[O-])n1 (stereo not given),3,3736,9,8,-5,5.4,/
O=[N+]([O-])c1ccccc1/C=C/C=N/n1c(-c2ccccc2)n[nH]c1=S,/,2410,/,/,-11,/,2

# (continued)
SMILES,ugtP null kill,Bead autofluor,Mtb hypoxia rep,Mtb hypoxia rep growth,PrP UTR inh,Sa RN4220 lethal,BJeLR lethal
COc1ccccc1CC(=O)N1CCN(S(=O)(=O)c2ccccc2)CC1,7,5610,8,0,42,4.3,6
COc1cccc(CNC(=O)CSc2ccc(-c3cccs3)nn2)c1,5,4550,13,-1,-2,0.6,8
CC(C)CN(CC(C)C)C(=O)COn1nnc2ccc(S(=O)(=O)N3CCOCC3)cc21,7,/,13,8,-12,0.6,/
CC(=O)c1cccc(OCCCOc2cccc3cccnc23)c1,12,3919,10,5,-4,2.3,-3
O=C(C1CCC1)N1CCC(c2nc3c(nnn3Cc3c(F)cccc3Cl)c(=O)[nH]2)CC1,28,3701,-8,3,-30,3.7,/
CSC1=NCCN1S(=O)(=O)c1ccc2ccccc2c1,8,2570,14,2,-27,7.8,-10
Cc1cc(C(=O)Nc2cccc(C(=O)O)c2)c(C)o1,2,22853*,6,10,-11,0.6,-8
O=C(c1ccccc1F)N(Cc1cccnc1)Cc1cc2cc3c(cc2[nH]c1=O)OCCO3,3,4208,17,-1,-31,6.8,-6
Cc1ccc(Nc2cc(C)nc3c(C)ccc([N+](=O)[O-])c23)cc1,65,2023,2,11,8,22,0
CC(C)(C)C1C=C(C(=O)O)OC(OCc2ccc(CO)cc2)C1 (stereo not given),8&0,/,22&-5,5&8,/,7.3&2.1,/
COc1cc2ccccc2cc1C(=O)NN=Cc1cccnc1,-6,/,48*,31*,/,1.0,/
Cc1c(NC(=O)COC(=O)C23CC4CC(CC(Br)(C4)C2)C3)c(=O)n(-c2ccccc2)n1C,2,4366,12,5,-18,3.0,6
Cc1ccc2occ(/C=N/O)c(=O)c2c1,/,2869,/,/,-28,/,0
COc1ccc(CCNC(=O)c2c(N)no[n+]2[O-])cc1OC,2,3219,7,0,-9,1.3,2
Cc1[nH][nH]c(=O)c1N=Nc1ccc(Cl)cc1,-2,2146,6,6,-35,4.9,3
O=C(NCc1ccco1)C(=O)NCC1OCCCN1S(=O)(=O)c1ccc(Cl)cc1 (stereo not given),-1,2435,0,4,-14,4.1,1
COC(=O)c1c(NC(=O)c2ccco2)sc2c1CCN(C(C)=O)C2,-8,4393,3,4,-8,6.5,1
COc1ccc(C(=O)NNC2=NC(C)(C)Cc3cc(C)c(C)cc32)cc1,15,/,-6,-1,-11,18,4
Cc1cc(N)ccc1N=Nc1c(C)n(C)n(-c2ccccc2)c1=O,4,6086,-3,-2,-16,1.0,-9
COc1ccc(CC(=O)O/N=C(\N)c2ccc(C)cc2)cc1,12,4067,4,10,-28,1.2,-4
C=CCn1c(N)c(C(=O)Nc2ccccc2)c2nc3ccccc3nc21,56,3463,7,-6,9,5.4,-9
O=C1C(=O)N(CCS(=O)(=O)c2ccccc2)c2ccc(Cl)cc21,/,5575,/,/,1,/,-7
CC(=NNc1cc(N2CCOCC2)nc(C)n1)c1ccc(F)cc1,-2,/,-5,3,/,2.5,/
CCCCC(=O)Nc1cc(OC)c(NC(=O)C2CCCCC2)cc1OC,0,8808,-4,5,-14,1.2,-3
O=C1O/C(=C/C(=O)N2CCOCC2)c2ccccc21,-3,2431,19,10,-9,-7.8,7
CCSc1nnc(-c2ccccc2NC(C)=O)c(=O)[nH]1,-6,4484,8,11,-8,8.7,9
Cc1cc(Cl)ccc1NC(=O)CCC(=O)O,5,2090,/,/,-7,4.8,-1
CCN(C(=O)COC(=O)CNC(=O)c1ccc2ccccc2c1)c1c(N)n(Cc2ccccc2)c(=O)[nH]c1=O,-2,3109,13,0,-33,-0.6,/
Cc1ccc(C)c(C(=O)Cn2c(NCCO)nc3ccccc32)c1,7,3649,9,6,-28,1.9,-4
Cc1nc(-c2ccc(F)cc2)c(CC(=O)NCC(=O)Nc2ccc(F)c(F)c2)s1,3,?,6,4,6,-4.8,/
O=C(CCC(=O)NCCCc1ccccc1)NCCCc1ccccc1,2,2247,6,2,-14,2.7,-6
COCC(=O)N1CCC(n2nccc2NC(=O)CCOc2ccccc2)CC1,-1,4980,8,7,-25,-1.0,1
CC(c1ccccc1)N1CC(C(=O)Nc2nccs2)CC1=O (stereo not given),8,5962,8,9,6,2.4,1
CCOC(=O)CN1C(=O)C(O)(CC(=O)c2cccc(OC)c2)c2ccccc21 (stereo not given),-2,23744*,2,22,-30,6.6,-9
O=c1c2ccccc2c(/C=N/c2ncn[nH]2)c(O)n1Cc1ccccc1,-17&-19,4212&4313,3&-6,-2&13,-9&-3,-8.6&1.0,5
CCCN1CCN(S(=O)(=O)c2ccc3c(c2)OCCO3)CC1,5,3267,6,5,-8,4.4,0
CCCC(=O)Nc1nnc(CCOC)s1,-3,1995,9,1,-8,3.3,3
COc1cccc(C=NNC(=O)CCC(=O)Nc2ccc(Br)cc2)c1,-1,/,9,9,/,2.0,/
